High-throughput results from PubChem BioAssay.
VACV mCherry inh: qHTS for Stage-Specific Inhibitors of Vaccinia Orthopoxvirus: mCherry Reporter Primary qHTS. Vaccinia virus mCherry reporter infection, fluorescence; about a quarter of the inactives have no number. 310,000 compounds, 0.63% hits. Potency, µM (top dose mostly 36.5 µM), for inactives: top-dose activity change, negative = inhibition, hits mostly inhibitors; active = well fitted inhibition curve with a large enough effect; inconclusive = small, poorly fitted or top-dose-only effect; inactive = no such curve, though single readings can be large or run the other way; tested in A549 cells; note: nearly all actives have a fitted effect of over 35% in size; inactives centre near -10
Vaccinia Venus: qHTS for Stage-Specific Inhibitors of Vaccinia Orthopoxvirus: Venus Reporter Primary qHTS; Vaccinia virus Venus reporter expression, fluorescence; Potency, µM (highest dose often 36.5 µM), for the others: at the top dose activity change, negative = inhibition, most hits filed as inhibitors; 330,000 compounds, 0.46% hits; active means well fitted inhibition curve with a large enough effect; inconclusive means small, poorly fitted or top-dose-only effect; inactive means no such curve, though single readings can be large or run the other way; tested in A549 cells; note: nearly all actives have a fitted effect of over 30% in size; inactives centre near -10
* = called active by the depositor; & = joins results of further samples. % is set by controls: 0 for no effect and ±100 for the full control effect; potency is the fitted concentration of half-maximal effect. Compounds were not picked by outcome (roughly 0.82% active in at least one column).

Screening CCOC(=O)C1(CCOc2ccccc2)CCN(Cc2cccc3c2OCO3)CC1 returned VACV mCherry inh -8% and Vaccinia Venus -18%.
`COCc1nc2cccnc2n1C1CCN(S(=O)(=O)N(C)C)CC1` gave VACV mCherry inh -1% and Vaccinia Venus 7%.
For Cc1oc(-c2ccccc2)nc1Cn1c(=O)cc(-c2ccccc2)c2c(C)nn(C)c21 the results were VACV mCherry inh -11% and Vaccinia Venus -10%.
`COC(C/C=C/C(=O)[C@H](C)OCc1ccccc1)OC` gave VACV mCherry inh -16% and Vaccinia Venus -2%.
Screening CCOC(=O)C1CCCN(C(=O)c2ccc(Cl)cc2)C1 (stereo not given) returned VACV mCherry inh -13% and Vaccinia Venus -4%.
`O=C(NCCC1=CCCCC1)N[C@@H](Cc1ccccc1)C(=O)O` gave VACV mCherry inh -12% and Vaccinia Venus -14%.
`CC(NC(=O)C1CCN(CCOc2ccc(Cl)cc2)CC1)c1cccc2ccccc12` (stereo not given) gave VACV mCherry inh -27% and Vaccinia Venus -27%.
For CCNC(=O)COC(=O)c1cccc(Br)c1 the results were VACV mCherry inh -4% and Vaccinia Venus -6%.
For COc1ccc(CCNc2cc(C)nc3c(-c4ccc(Cl)cc4)cnn23)cc1OC the results were VACV mCherry inh -27% and Vaccinia Venus -22%.
`N#CC(C#N)=C1C(=O)N(CCN2CCOCC2)c2ccccc21` gave VACV mCherry inh inconclusive and Vaccinia Venus 9%.
For Cn1cccc1/C=C1\SC(=S)N(NC(=O)c2ccccc2)C1=O the results were VACV mCherry inh -16% and Vaccinia Venus -1%.
`CC1=CC(C)C2(COC(=O)Nc3ccccc3)COC(C)C1C2C` (stereo not given) gave VACV mCherry inh -9% and Vaccinia Venus -8%.

Continued; the last 2 above are carried over.
For Cn1cccc1/C=C1\SC(=S)N(NC(=O)c2ccccc2)C1=O the results were VACV mCherry inh -16% and Vaccinia Venus -1%.
`CC1=CC(C)C2(COC(=O)Nc3ccccc3)COC(C)C1C2C` (stereo not given) gave VACV mCherry inh -9% and Vaccinia Venus -8%.
Screening CCOC(=O)CCCCCC(=O)Nc1ccc2c(c1)CC(=O)N([C@@H](C)CO)C[C@@H](C)[C@@H](CN(C)C(=O)Nc1ccc(C(F)(F)F)cc1)O2 returned VACV mCherry inh inactive and Vaccinia Venus -6%.
Cc1ccc(-c2nnc(SCC(=O)Nc3cccc(C(=O)N4CCOCC4)c3)n2C)cc1 was read as VACV mCherry inh -17% and Vaccinia Venus inconclusive.
`CC(CC(=O)N1CCN(c2ccccc2)CC1)c1ccccc1` (stereo not given) gave VACV mCherry inh -18% and Vaccinia Venus -20%.
Cc1cc(C(F)(F)F)n(-c2nc(C(=O)NNS(=O)(=O)c3ccccc3[N+](=O)[O-])cs2)n1 was read as VACV mCherry inh -3% and Vaccinia Venus -3%.
For O=C(OCc1ccc2c(c1)OCO2)c1ccc(S(=O)(=O)N2CCCCC2)cc1 the results were Vaccinia Venus -18%.
CN1CCN(C(=O)C2=C[C@@H](c3ccc(C(F)(F)F)cc3)C[C@@H](OCc3ccc(CO)cc3)O2)CC1 was read as VACV mCherry inh -4% and Vaccinia Venus -19%.
`CC(C)=CC(=O)OCc1csc(CC(=O)Nc2ccccc2C)n1` gave VACV mCherry inh -17% and Vaccinia Venus -13%.
COc1ccc(NC(=O)Cn2c(=O)n(-c3ccc(OC)cc3OC)c(=O)c3c(C)c(C)sc32)cc1 was read as VACV mCherry inh -26% and Vaccinia Venus -18%.
`Cc1ccc(C(=O)N/C(=C/c2ccco2)C(=O)N2CCCCCC2)cc1` gave VACV mCherry inh -25% and Vaccinia Venus 13%.
Screening O=C(NC1=NC2CCCCC2N1)c1ccccc1 (stereo not given) returned VACV mCherry inh inactive and Vaccinia Venus -6%.
For COc1ccc(/C=N/NC(=O)c2ccncc2)cc1CSc1nc2ccccc2s1 the results were VACV mCherry inh inactive and Vaccinia Venus -5%.
CCOc1ccc(S(=O)(=O)N2CCN(c3cccc(C(F)(F)F)c3)CC2)cc1OCC was read as VACV mCherry inh -10% and Vaccinia Venus -14%.
Screening CCCSc1ccc([C@@H]2[C@H]3C(=O)N(CC)C(=O)[C@H]3[C@]3(C(=O)OC)CCCN23)cc1 returned VACV mCherry inh inactive and Vaccinia Venus -12%.
For O=C(COC(=O)CCCSc1nc2ccccc2[nH]1)Nc1ccc(Cl)cc1 the results were VACV mCherry inh -16% and Vaccinia Venus -6%.
O=C(c1cccc(Oc2ccccc2)c1)N1CCN(c2ccccn2)CC1 was read as VACV mCherry inh inactive and Vaccinia Venus -5%.
Screening CC(C)c1ccc(N=C2NN=C(c3cccs3)CS2)cc1 returned VACV mCherry inh -16% and Vaccinia Venus -27%.
`CCn1c(C(=O)NCc2ccccc2C)cc2oc3ccccc3c21` gave VACV mCherry inh inconclusive and Vaccinia Venus 17%.
`COc1cccc(CNC(=O)CCC2CCCN(C3CCOCC3)C2)c1` (stereo not given) gave VACV mCherry inh 6% and Vaccinia Venus 4%.
`CC(C)CC(c1nnnn1CC1CCCO1)N1CCN(c2cccc(Cl)c2)CC1` (stereo not given) gave Vaccinia Venus 5%.
`CCOc1cc(/C=N/NC(=O)c2ccncc2)ccc1OC(=O)c1ccco1` gave VACV mCherry inh -2% and Vaccinia Venus -13%.
`COc1ccccc1S(=O)(=O)Cc1ccc(C(=O)NCc2ccccc2)o1` gave VACV mCherry inh inactive and Vaccinia Venus -10%.
Screening CCOc1cc(C(=O)NC(C)CC)cc(OCC)c1OCC (stereo not given) returned Vaccinia Venus -16%.
`CS(=O)(=O)N(C(=O)NC(=O)NC12CC3CC(CC(C3)C1)C2)C1CCCCC1` gave VACV mCherry inh inactive and Vaccinia Venus -18%.
Cc1ccc(CNC(=O)C(=O)NCC(c2cccs2)S(=O)(=O)c2ccc(C)cc2)cc1 (stereo not given) was read as VACV mCherry inh -10% and Vaccinia Venus -12%.

Overlap with the part before: 3 compounds, followed by the next part.
Screening CCOc1cc(C(=O)NC(C)CC)cc(OCC)c1OCC (stereo not given) returned Vaccinia Venus -16%.
`CS(=O)(=O)N(C(=O)NC(=O)NC12CC3CC(CC(C3)C1)C2)C1CCCCC1` gave VACV mCherry inh inactive and Vaccinia Venus -18%.
Cc1ccc(CNC(=O)C(=O)NCC(c2cccs2)S(=O)(=O)c2ccc(C)cc2)cc1 (stereo not given) was read as VACV mCherry inh -10% and Vaccinia Venus -12%.
COc1ccc(C(=O)Nc2ccc3nc4n(c(=O)c3c2)CCCCC4)cc1OC was read as VACV mCherry inh -9%&-5% and Vaccinia Venus -7%&-15%.
For COc1ccc(Nc2nnc(-c3ccc(N4CCOCC4)c([N+](=O)[O-])c3)c3ccccc23)cc1 the results were VACV mCherry inh -16% and Vaccinia Venus -16%.
For Cc1ccc(NC(=O)Cc2ccc(-n3c(C)nc4cccnc43)cc2)cc1C the results were VACV mCherry inh -22% and Vaccinia Venus -19%.
`O=C(Nc1ccc(Cl)cc1)Nn1cnnc1` gave VACV mCherry inh -2% and Vaccinia Venus -13%.
O=C(Nc1cc(F)ccc1F)N1CCC(CN2CCCC2)CC1 was read as VACV mCherry inh -4% and Vaccinia Venus -5%.
Cc1ccc(NC(c2cccc(Cl)c2)c2nnc(-c3ccccc3)o2)cc1F (stereo not given) was read as VACV mCherry inh 0% and Vaccinia Venus 2%.
Screening Cc1cc(C)c(NC(=O)C2CCN(c3nc4ccccc4[nH]3)CC2)c(C)c1 returned VACV mCherry inh -10% and Vaccinia Venus -8%.
`COC(=O)c1c(NC(C)=O)sc(C(=O)Nc2ccccc2OC)c1C` gave VACV mCherry inh -4% and Vaccinia Venus 4%.
CCn1cc(CNC(=O)C2CCC(=O)N(CCc3cccc(F)c3)C2)cn1 (stereo not given) was read as VACV mCherry inh inactive and Vaccinia Venus -5%.
`COc1ccc(-n2nnnc2SCC(=O)NCCc2ccccc2)cc1` gave VACV mCherry inh 19% and Vaccinia Venus 4%.
CC(=O)c1c(N2CCN(Cc3ccccc3)CC2)nc(=S)n(Cc2ccccc2)c1C was read as VACV mCherry inh inconclusive and Vaccinia Venus -24%.
Screening COc1ccccc1CNC(=O)CCCCn1c(=O)c2ccccc2n(CC(=O)Nc2c(C)cc(C)cc2C)c1=O returned VACV mCherry inh 4% and Vaccinia Venus -4%.
`Oc1cccc2ccc[n+](CC(O)Cn3c4ccccc4c4ccccc43)c12` (stereo not given) gave VACV mCherry inh -9% and Vaccinia Venus inconclusive.
Screening Cc1ccc(-c2cc(C(=O)N/N=C/c3ccc([N+](=O)[O-])o3)c3ccccc3n2)o1 returned VACV mCherry inh inconclusive and Vaccinia Venus inconclusive.
For COCCn1c(C)cc(C(=O)COC(=O)c2ccc(N3CCCC3=O)cc2)c1C the results were VACV mCherry inh -17% and Vaccinia Venus -6%.
For O=C(O)c1ccc(N/N=C/c2cccc3nccnc23)cc1 the results were VACV mCherry inh inconclusive and Vaccinia Venus -9%.
For CCCCN(C(=O)c1cnccn1)c1c(N)n(CCC)c(=O)[nH]c1=O the results were VACV mCherry inh inactive and Vaccinia Venus -3%.
For CCn1cc(C2C3=C(CC(C)(C)CC3=O)N(c3ccc(C)cc3)C3=C2C(=O)CC(C)(C)C3)c(C)n1 the results were VACV mCherry inh -11% and Vaccinia Venus -15%.
`O=C(Nc1ccc2c(c1)CCCN2C(=O)c1cccs1)c1ccc(F)c(F)c1` gave VACV mCherry inh -19% and Vaccinia Venus -19%.
CC12COC3(P(=O)(c4ccccc4)c4ccccc4)CC1CCC23CP(=O)(c1ccccc1)c1ccccc1 (stereo not given) was read as VACV mCherry inh inconclusive and Vaccinia Venus -7%.
Screening Cc1nc(C(=O)Nc2ccc(Cl)cc2)sc1C1(C)CC(c2ccccc2)=NO1 (stereo not given) returned VACV mCherry inh -3% and Vaccinia Venus inconclusive.
Screening CCn1c(SCC(=O)N2c3ccccc3CCc3ccccc32)nnc1-c1ccc(OC)cc1 returned VACV mCherry inh -13% and Vaccinia Venus -6%.
Screening Cc1nn2c(C)c(C(=O)Nc3ccccc3)cnc2c1-c1ccccc1 returned VACV mCherry inh 7% and Vaccinia Venus 0%.
`CCOCCCNC(=O)CCC(=O)NNc1nc2ccccc2c2nc(C)nn12` gave VACV mCherry inh -2%&-6% and Vaccinia Venus -14%&-7%.
`O=c1c2cc3c(cc2nc2sc(Nc4cccc([N+](=O)[O-])c4)nn12)OCO3` gave VACV mCherry inh inactive and Vaccinia Venus -8%.
`COc1ccccc1CN(C)C(=O)c1cc(-c2cc(OC)c(OC)c(OC)c2)nc2ccccc12` gave VACV mCherry inh -22% and Vaccinia Venus -12%.
For CC1Cc2ccccc2N1C(=O)Cn1cnc2ccccc2c1=O (stereo not given) the results were Vaccinia Venus -21%.
CNC[C@H]1Oc2c(NS(=O)(=O)c3ccccc3)cccc2C(=O)N([C@H](C)CO)C[C@@H]1C was read as VACV mCherry inh inactive and Vaccinia Venus 5%.
For O=C(Cn1ccc(C(F)(F)F)n1)N=Nc1c(O)[nH]c2ccccc12 the results were VACV mCherry inh -7% and Vaccinia Venus -13%.
`CCN(CC)CCOC(=O)c1cccc(Br)c1` gave VACV mCherry inh inactive and Vaccinia Venus -2%.
`COc1ccc(CN2CCn3ncc(C(=O)Nc4ccccc4)c3C2=O)cc1` gave Vaccinia Venus inconclusive.
For COCCNC(=S)N/N=C(\C)c1ccccc1O the results were VACV mCherry inh -12% and Vaccinia Venus 8%.
Screening COc1ccc(OCCN2C(=O)NC3(CCc4ccccc4C3)C2=O)cc1 (stereo not given) returned VACV mCherry inh -3% and Vaccinia Venus 0%.
Screening CCc1ccc(N2CC(C(=O)Nc3nc4ccc(S(C)(=O)=O)cc4s3)CC2=O)cc1 (stereo not given) returned VACV mCherry inh -9% and Vaccinia Venus 3%.
For Cc1ccccc1CCNC(=O)C1CC(O)CN1C(=O)Nc1ccccc1 (stereo not given) the results were VACV mCherry inh -1% and Vaccinia Venus -11%.
Screening CCOC(=O)/C=c1\s/c(=C\c2c(OCC)ccc3ccccc23)c(=O)n1CC(=O)NCC1CCCO1 (stereo not given) returned VACV mCherry inh -19% and Vaccinia Venus inconclusive.

Entries above with a COOH group:
`O=C(NCCC1=CCCCC1)N[C@@H](Cc1ccccc1)C(=O)O` gave VACV mCherry inh -12% and Vaccinia Venus -14%.
For O=C(O)c1ccc(N/N=C/c2cccc3nccnc23)cc1 the results were VACV mCherry inh inconclusive and Vaccinia Venus -9%.

Next part
For Cc1nc2ccccc2nc(C)c1=NOCc1cccc(Cl)c1 the results were VACV mCherry inh inconclusive and Vaccinia Venus inconclusive.
For CCOc1ccc(-c2c(=O)n(OCc3nc4ccccc4[nH]3)c3ccccc3[n+]2[O-])cc1 the results were VACV mCherry inh -6% and Vaccinia Venus -13%.
Nc1ncc(S(=O)(=O)N2CCN(c3ccccc3)CC2)cn1 was read as VACV mCherry inh 5% and Vaccinia Venus 0%.
For Cc1cccc(C)c1NC(=O)COn1nnc2ccc(C(F)(F)F)cc21 the results were VACV mCherry inh -15% and Vaccinia Venus -3%.
O=C(CC12CC3CC(CC(C3)C1)C2)NCC(=O)N1CCCC1 was read as Vaccinia Venus -14%.
Screening CCOC(=O)c1sc2nc(N3CCOCC3)c3c(c2c1N)CC(C)(C)N(C)C3 returned VACV mCherry inh -16% and Vaccinia Venus -24%.
For CC(=O)N1CCN(C(=S)Nc2ccc(SC(F)F)cc2)CC1 the results were VACV mCherry inh -4% and Vaccinia Venus 1%.
`O=C(NCc1ccco1)c1cc(-c2ccccc2)nn1CC1CC(c2cccc([N+](=O)[O-])c2)=NO1` (stereo not given) gave VACV mCherry inh -5% and Vaccinia Venus -11%.
